HCMV NEC inh – disrupts HCMV UL50-UL53 complex binding; 0.15% of 190,000 active; inhibition, % (test concentration not listed); HTRF UL50-UL53 interaction, normalized percent inhibition; AID 1918969;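 active = both replicates at 50% or more, plus weaker picks with an unusually low signal ratio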;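 note: stock transfer was 100 nL into about 20 µL; 0% = negative control wells and 100% = wells with untagged competitor protein; inactives centre near -12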
* hit, by the source's call; & = joins results of further samples.

molecule	HCMV NEC inh
N#Cc1ccsc1NC(=O)C1CC1	-18.0
COc1oc(=O)c2cc(N)ccc2c1Cl	3.7
O=C(O)c1ccccc1-c1nc2ccccc2[nH]1	4.1
O=C(Cn1cccc(C(F)(F)F)c1=O)c1ccc(Cl)cc1	-6.1
CC(=NCc1cccnc1)C1=C(O)c2ccccc2C1=O	1.9
CN1CCN(C(=O)c2cc3ccccc3nc2Cl)CC1	1.3
CCOC(=O)c1cc(C)sc1N1C(=O)C=CC1=O	4.3
CC(C)=CCC/C(C)=C/CC/C(C)=C/CSc1ccccc1C(N)=O	-6.6&-6.6
CC(=O)OC1CC2CCC3C(CCC4(C)C3CC([N+]3(C)CCCCC3)C4OC(C)=O)C2(C)CC1[N+]1(C)CCCCC1 (stereo not drawn)	-32.2
OCC(O)C(O)CO (stereo not drawn)	-22.2

Further records:
molecule	HCMV NEC inh
Cc1cc(O)c2c(=O)c(-c3cscn3)c(C)oc2c1	10.3&-4.3
COc1c(F)cc(C(=O)N2CCNC(=O)C2Cc2ccccc2)cc1F (stereo not drawn)	-22.1
Cc1ccc(OCc2nc(-c3ccc(C(=O)NC4CCCC4)cc3)oc2C)cc1	22.5
O=C(CSc1nc(-c2ccccc2)nc2c1CCCC2)N1CCCCC1	-10.4
Cc1ccc(C(=O)Nc2cccc(C(F)(F)F)c2)cc1Nc1cncnc1	-11.2
COc1ccc(/C=C\C(=O)NCc2ccc3[nH]c(C)cc3c2)cc1OC	-33.7
O=C(NS(=O)(=O)c1ccc2c(c1)OCCO2)c1ccccc1	-0.1
O=C(NC(Cc1ccccc1)C(=O)O)c1ccc(Cl)c(Cl)c1 (stereo not drawn)	2.7
Cc1cc(C)cc(NC(=O)CSc2nnc(NC(=O)C(C)C)s2)c1	-22.6
CCCn1c(CNC(=O)c2cccc(C)c2)nc2ccccc21	-11.0

Further structures
molecule	HCMV NEC inh
CCCCC1CCC(C(=O)Nc2c3c(nn2C(C)(C)C)CS(=O)(=O)C3)CC1 (stereo not drawn)	-15.9
Cc1cc(C)cc(NC2=NC3CS(=O)(=O)CC3S2)c1 (stereo not drawn)	-12.6
CC(C)CC(=O)N[C@H](C(=O)N[C@H](C(=O)N[C@@H](CC(C)C)[C@@H](O)CC(=O)N[C@@H](C)C(=O)N[C@@H](CC(C)C)[C@@H](O)CC(=O)O)C(C)C)C(C)C	5.4&1.7
CCOC(=O)c1cc2cc(OC)ccc2oc1=O	-15.3
Clc1ccc(-c2nc(Sc3nc(-c4cccs4)ns3)n[nH]2)cc1	-13.9
O=C(Nc1ccc(-n2ccnc2P(=O)(O)c2ccccc2)cc1)c1ccccc1Cl	-7.6
COc1ccccc1NS(=O)(=O)c1cccs1	6.6
COc1ccc(C(=O)NCc2nnc(SC)n2CCc2ccccc2)cc1	2.9
CSc1nnc(NC(=O)C23CC4CC(CC(C4)C2)C3)s1	-10.5
O=C(Nc1ccc(-n2nncc2-c2ccccc2)cc1)c1cccs1	-7.0

Going on with the list:
molecule	HCMV NEC inh
CC(C)C(C(=O)O)N1C(=O)C2C3C=CC(C3)C2C1=O (stereo not drawn)	-15.1
CC(C)Sc1nnc(NC(=O)c2ccc(F)cc2)s1	2.4
Cc1csc2c(=O)n(Cc3ccc(Cl)s3)cnc12	-17.3
O=C(c1c[nH]c2ccccc12)N1CCCC1	-1.0
CC(=O)Nc1c(I)c(C(=O)N[C@H]2C(O)O[C@H](CO)[C@@H](O)[C@@H]2O)c(I)c(N(C)C(C)=O)c1I (stereo partly drawn)	-30.1
OCc1nc2ccccc2n1CCC1CCCCC1	3.1
O=C(Nc1ccc(N2CCOCC2)cc1)c1cccs1	-5.7
CCOC(=O)Cc1csc(NC(=O)c2cc(Cl)sc2Cl)n1	-26.1
Cc1cccc(/N=C2/NC(=O)C(Cc3cccc(C(F)(F)F)c3)S2)n1 (stereo not drawn)	3.9
CNC(CC(=O)O)C(=O)O (stereo not drawn)	16.1&-6.4

(listing goes on)
molecule	HCMV NEC inh
OC(c1cccs1)c1nccc2ccccc12 (stereo not drawn)	-18.3&-25.1
O=C(NCC1CCCO1)[C@@H]1C[C@H](CN2CCOCC2)CN(Cc2ccc3ccccc3c2)C1 (stereo partly drawn)	-5.7
FC(F)(F)c1ccc(/C=C/c2cc(Cl)cc(Cl)c2)cc1	-20.3&-20.3
NC(=O)CCn1cnc2ccccc21	2.9&-4.5
OC1CCN(c2ncnc3nc[nH]c23)CC1	-8.5
CCCCCNC1=C(c2cn(C)c3ccccc23)C(=O)N(C)C1=O	-12.9&-12.9
Clc1ccc(-c2nnc3sc(-c4ccc(Br)o4)nn23)cc1	1.3
CCOC(=O)c1c(Cl)c2ccccc2n(C)c1=O	-5.0
CCOC(=O)c1c(C)oc2c1c(C=NCc1cccnc1)c(O)c1ccccc12	-3.3
CC(=O)Nc1c(-c2ccccc2)nc2ccccn12	-21.2

Carrying on.
molecule	HCMV NEC inh
CC(=O)Oc1cc(-c2ccccc2)nn1C	5.4
CCN(CC)c1ncnc2c1cnn2-c1ccc(OC)cc1	-1.6
Cc1cccc(NC(=O)CSc2c[nH]c3ccccc23)c1	-4.6
Cc1nsc(NC(=O)N(C)Cc2cn[nH]c2-c2ccc(F)cc2)n1	-24.7&-24.7
CCn1ncc(NC(=O)Cn2cc(-c3ncnc4ccsc34)cn2)n1	41.3&41.3
O=C(COc1cccc2ccccc12)OC1CCS(=O)(=O)C1 (stereo not drawn)	-6.4
CC(C)n1c(=S)[nH]c2cc(C(F)(F)F)ccc21	-9.1
CC(C)(C)c1ccc(S(=O)(=O)Nc2ccc(-n3ccnc3)cc2)cc1	9.0
Cc1cccc(N2C(=O)/C(=C/c3ccc(O)c(O)c3)SC2=S)c1C	-26.0
NC(=O)C12CC3CC(CC(Cl)(C3)C1)C2	8.9&1.3

The final 2 records of the part before open the next one.
molecule	HCMV NEC inh
Cc1cccc(N2C(=O)/C(=C/c3ccc(O)c(O)c3)SC2=S)c1C	-26.0
NC(=O)C12CC3CC(CC(Cl)(C3)C1)C2	8.9&1.3
O=C(Nc1nc2c(s1)CCCC2)c1ccccc1	-13.5
C=CCN(CC=C)S(=O)(=O)c1ccc(C(=O)N2CCCC2)cc1	-5.3
CCSc1nnc(CNC(=O)c2cccc(OC)c2)n1-c1ccc(F)cc1	-6.5
CCCCC[C@H](O)/C=C/[C@H]1CC[C@H](O)[C@@H]1C/C=C\CCCC(=O)O	-17.5&-17.5
Cc1ccccc1/[N+]([O-])=C/c1ccncc1	-35.8
Cc1cnc(-c2ccccc2C(C)C)nc1NCc1ccc(-n2ccnn2)cc1	-0.5
Cc1cc(F)c(Nc2ncnc3cc(OCc4ccccc4)ccc23)cc1O	9.4&-18.6
NS(=O)(=O)c1ccc(N2C(=O)/C(=C\C=C\c3ccccc3)SC2=S)cc1	-7.6
Cc1nc2c(ccc3nc(NC(=O)C4CC4)sc32)s1	7.6
COc1ccc(-c2noc(CC(=O)O)c2-c2ccc(OC)cc2)cc1	10.6

Continued; the last 2 above are carried over.
molecule	HCMV NEC inh
Cc1nc2c(ccc3nc(NC(=O)C4CC4)sc32)s1	7.6
COc1ccc(-c2noc(CC(=O)O)c2-c2ccc(OC)cc2)cc1	10.6
CCSc1nnc(NC(=O)CSc2nccn2-c2ccccc2)s1	-11.5
COc1cc2ncnc(Sc3nnc(C)s3)c2cc1OC	2.6
O=C(Oc1ccc(C=Nc2cccc(Br)c2)cc1)c1ccccn1	14.1
Cc1cc2c(C(=O)NCC(C)c3ccccc3)c(O)c(O)cc2c(O)c1-c1c(C)cc2c(C(=O)NCC(C)c3ccccc3)c(O)c(O)cc2c1O (stereo not drawn)	-10.1
CCC(=O)c1ccc(O)cc1	-34.9
COc1ccccc1N(CC(O)CN1CCCCC1)S(=O)(=O)c1ccccc1 (stereo not drawn)	-6.1
Cc1ccc(-n2ncc3c(NCc4ccco4)ncnc32)c(C)c1	-6.6
O=C(CC(c1ccco1)S(=O)(=O)c1ccccc1)c1ccc(Cl)cc1 (stereo not drawn)	1.4
CCCCCCCCCCCCCC(=O)O	-4.4&-4.4
Cc1ccnn1CCC(=O)N1CC(=O)N(CC(C)C)CC(OCc2ccccn2)C1 (stereo not drawn)	-2.5

Later entries
molecule	HCMV NEC inh
CCCSC1=C(C#N)C(c2cc(OC)ccc2OC)CC(=O)N1 (stereo not drawn)	-24.0
O=C(/C=C/c1ccccc1)Nc1nc(-c2ccc3c(c2)OCCO3)cs1	-13.0
CCCn1c(CCCNC(=O)C(C)(C)C)nc2ccccc21	5.4
O=C(c1ccccc1)c1cnc(-c2ccccc2)s1	-12.1
Cc1cc2cc(CNC(=O)c3ccc4c(c3)OCO4)ccc2n1C	-4.1
O=C(c1ccc(-n2ccnc2)cc1)c1ccc(-n2ccnc2)cc1	-23.6
Cc1cc2nnc(SCC(=O)N(C)C)n2c2ccccc12	-14.4
O=S(=O)(c1ccccc1)N1CCN(S(=O)(=O)c2ccccc2)CC1	3.7
NC(=O)c1oc2ccccc2c1NC(=O)C(c1ccccc1)c1ccccc1	2.5
CC(C)COc1cccc(OCC(=O)O)c1	-25.7

Going on with the list:
molecule	HCMV NEC inh
O=C(Nc1nnc(SCc2ccccc2)s1)c1cccs1	-15.3
NC(=O)CSc1nnc(-c2cccs2)n1-c1ccc(Cl)cc1	8.7&-0.1
O=C1c2ccccc2SCC1(CO)CO	2.9
CCOC(=O)c1c(Cc2cccc(Cl)c2)[nH]c2c1cc(O)c1ccccc12	5.7&5.7
O=C(Nc1cc(Br)c(O)c(Br)c1)c1ccccc1	-25.1
Cc1nc2sc(C(c3cccs3)N3CCC(C)CC3)c(O)n2n1 (stereo not drawn)	-15.1
Cc1ccc(CN2CCN(c3ncnc4sccc34)CC2=O)cc1	40.1&40.1
CCOC(=O)c1[nH]c2ccccc2c1NC(=O)Cc1ccc(OCC)cc1	-22.1
N#Cc1ccc2[nH]c(O)c(-c3ccc(CN4CCOCC4)cn3)c2c1	-95.3
N=C(CC(O)COc1ccccc1-c1ccccc1)N1CCCCC1 (stereo not drawn)	1.9

The list goes on:
molecule	HCMV NEC inh
O=C(NCCO)c1ccc(CSc2nc3ccccc3[nH]2)cc1	-17.7
CN(NC(=O)CC(=O)NN(C)C(=S)c1ccccc1)C(=S)c1ccccc1	-16.6
CCCS(=O)(=O)N1CCN(c2ccccc2F)CC1	-6.6
Cc1nc(N2CC(C)OC(C)C2)c2c3c(sc2n1)CCC3 (stereo not drawn)	0.4
CN(C)c1cccc(NC(=O)c2cc(NCc3cnn(C)c3)cc(S(=O)(=O)N3CCCC3)c2)c1	-4.7
CCCCCCCCCCCCC/C=C/[C@@H](O)[C@H](CO)NC(C)=O	-0.2&-9.0&-9.0&-0.7
Cc1cc(NC(=O)C2CC2)nc2c1c(=O)oc1ccccc12	-3.8
OCCN1CCN(C(c2ccccc2)c2ccc3cccnc3c2O)CC1 (stereo not drawn)	11.7
C=CCc1ccccc1OCC(O)CN1CCN(C(=O)OCC)CC1 (stereo not drawn)	-1.7
O=C(CCCS)NC1CCN(C(=O)COc2ccc(Cl)cc2Cl)CC1	8.8

Remaining list, next part:
molecule	HCMV NEC inh
COc1ccc(C(=O)n2cnc3ccccc32)cc1Br	7.4
O=C(CCn1c(=O)oc2ccccc21)N1CCCCC1	-9.9
COC(=O)c1c(-c2ccccc2)csc1NC(=O)CS(=O)(=O)c1ccccc1	-6.3
O=C(Nc1ccc(-c2csc(Nc3ccc(Cl)cc3)n2)cc1)c1cccc(C(F)(F)F)c1	-4.0
CCCCC[C@@](C)(O)/C=C/[C@H]1C=CC(=O)[C@@H]1C/C=C\CCCC(=O)O	-17.6&-17.6
O=C(Nc1ncc(Cc2ccccc2Cl)s1)c1ccco1	-18.2
CC(C)CCC(C)N[C@H](CO)Cc1ccccc1 (stereo partly drawn)	-10.5
O=c1ncccn1C1OC(CO)C(O)C1O (stereo not drawn)	0.7
CC(C)OC(=O)c1cc2ccccc2c(=O)s1	-41.8
COc1ccc(-c2nnc(SCC(=O)c3ccccc3)n2C)cc1OC	10.0&-7.0

(cont.)
molecule	HCMV NEC inh
COc1ccc(Cl)cc1C(=O)Nc1nnc(SCC(=O)c2ccccc2)s1	-19.3
CNC(=O)C12CC3CCC(CC(C3)C1)C2	12.8&-17.5
COc1cccc2sc(NN)nc12	-15.7
Cc1cc(C)cc(NC(=O)CC(C(=O)O)N(C)C)c1 (stereo not drawn)	0.9
Cc1ccc(S(=O)(=O)CC(=O)c2ccccc2)cc1	-3.4
Cc1cc(C)cc(OCC(=O)n2nc(C)cc2C)c1	-5.2
N#Cc1c(O)c2c(-c3ccc(-c4ccccc4O)cc3)csc2[nH]c1=O	-31.1&-64.6
CCN(CC)C(=S)SC1=C(Cl)CS(=O)(=O)C1	-4.8
CCc1nnc(NC(=O)C(C)Sc2ccccc2)s1 (stereo not drawn)	-10.5
Oc1ccc2ccccc2c1CN1CCN(Cc2ccccc2)CC1	-3.8

Entries shown so far with bromine, in the order listed:
molecule	HCMV NEC inh
Clc1ccc(-c2nnc3sc(-c4ccc(Br)o4)nn23)cc1	1.3
O=C(Oc1ccc(C=Nc2cccc(Br)c2)cc1)c1ccccn1	14.1
O=C(Nc1cc(Br)c(O)c(Br)c1)c1ccccc1	-25.1
COc1ccc(C(=O)n2cnc3ccccc32)cc1Br	7.4

Continued:
molecule	HCMV NEC inh
CCCCC(=O)O[C@H]1CC[C@H]2[C@@H]3CCc4cc(O)ccc4[C@H]3CC[C@]12C	-45.1
CC(C)c1cccc(O)c(=O)c1	-49.8
CC(C)C(=O)Nc1ccc(Cl)c(C(=O)c2ccccc2)c1	-28.2
CSC1=C(C#N)C(c2ccc(OCc3ccccc3)cc2)C2=C(CCCC2=O)N1 (stereo not drawn)	-1.4

From PubChem

Only part of the results is shown (hit frequency here may not be typical).
